Source: PubChem (SRMLSC)
H5N1 antiviral – antiviral screen in MDCK cells, H5N1 avian flu; cytopathic effect, luminescence, 72 h; active compounds read high; no value below 0 was filed and about half of the inactive calls have no number; reference of the scale not given here; inhibition, % at 50 µM; actives 0.07% (n = 96,000); in the data active = inhibition above about 25%
* marks the source's active call; other numbers are inactive results; i = inactive. These rows are one share of the data (hit frequency here may not be typical).

molecule | H5N1 antiviral
Cc1ccc(C)c(-n2c(Cc3cc(=O)[nH]c(=O)[nH]3)nnc2SC(C)C)c1 | 0.9
O=C1CN(C(=O)C2CC2)c2ccccc2N1 | i
O=C(c1cccnc1)N1CCN(Cc2cccc(Br)c2)CC1 | i
CCCCOC(=O)Nc1nnc(CCOCC)s1 | 0.9
CCSc1nc(C)c(C(C)=O)cc1C#N | 1.3
Cc1ccc(-c2csc(C3C(N)=NC(S)=C(C#N)C34CCCCC4)n2)cc1 (stereo not drawn) | 0.9
O=C(Oc1cccc(NC(=O)c2ccco2)c1)c1ccc(Br)c(S(=O)(=O)N2CCCCC2)c1 | i
COc1ccc(/C(N)=N/OC(=O)c2ccc(C)c([N+](=O)[O-])c2)cc1OC | i
COc1ccc(-n2nc3c(c2NC(=O)c2c(-c4ccccc4Cl)noc2C)CS(=O)(=O)C3)cc1 | 0.5
O=S(=O)(c1ccc(-c2csc(-c3cccnc3)n2)cc1)N1CCCCC1 | 2.0
Cc1nc2ncnn2c(C)c1CCC(=O)Nc1csc(N)n1 | 7.9
COc1ccc(-c2c(=O)n(OCc3ccccn3)c3ccccc3[n+]2[O-])cc1OC | i
CCOC(=O)c1c(C)c(C(=O)NC(C)COC)c(C)n1C (stereo not drawn) | i
O=S(=O)(Cc1cccc(F)c1)c1c[nH]c2ccccc12 | 1.2
CCOc1ccc(C2CC(=O)NC(SC)=C2C#N)cc1 (stereo not drawn) | i
CCOC(=O)c1ccc(NC(=O)Nc2ccc(S(N)(=O)=O)cc2)cc1 | i
COc1nc(N2CCCCCC2)nc(N2CCCCCC2)n1 | 2.3
CCn1c(N2CCN(C(=S)NC)CC2)nc2ccccc21 | i
Cc1ccc2oc(=O)c3cnn(CC(=O)NCCN4CCOCC4)c3c2c1 | 0.9
O=C(NCC(=O)N(CCc1ccccc1)C(C(=O)NC1CCCCC1)c1ccncc1)c1ccco1 (stereo not drawn) | 0.1
O=C(CC1NC(=O)NC1=O)NC1(C(=O)NC2CCCCC2)CCCCC1 (stereo not drawn) | i
CC(N=Cc1ccccc1O)c1ccccc1 (stereo not drawn) | i
O=S(=O)(c1ccccc1)c1nc(Nc2ccccc2N2CCOCC2)sc1Cl | 1.2
CC1CC(=O)Nc2ccccc2N1S(=O)(=O)c1ccccc1 (stereo not drawn) | 0.3
Cc1ccccc1-n1nc2c(c1NC(=O)c1ccc(S(=O)(=O)N(C)C)cc1)CSC2 | 1.1
O=S(=O)(NC1CCCC1)c1ccc(S(=O)(=O)N2CCN(c3ccccc3)CC2)cc1 | 0.1
Cc1cc2c(c(=O)n1CC1CCCO1)C(c1ccc3c(c1)OCO3)C(C#N)=C(N)O2 (stereo not drawn) | 0.4
Cc1noc(/C=C/c2ccco2)c1S(=O)(=O)N1CCC(C(=O)N(C)Cc2ccccc2)CC1 | 1.2
CC1CCN(S(=O)(=O)c2ccc(C(=O)NCc3ccc4c(c3)OCO4)cc2)CC1 | i
Clc1ccc(OCCCn2cncn2)cc1Cl | i
Cc1cccc(C(=O)Nc2ccc(C(=O)/C=C/c3cccs3)cc2)c1 | i
O=C(Cn1nc(C(=O)O)c2ccccc2c1=O)NCC1CCCO1 (stereo not drawn) | i
CCNC(=S)NNC(=O)c1csc2ccccc12 | 0.2
Clc1ccc(/C=N/c2c(-c3ccco3)nc3ccccn23)cc1 | i
COc1ccc(CN2C(=O)CS(=O)CC2=O)cc1OC | i
Cc1ccc2[nH]c(=O)c(CN(CCCN3CCOCC3)Cc3nnnn3C3CCCC3)cc2c1 | 0.2
CCOC(=O)Nc1cc(C(=O)OC)ccc1C | 0.2
CN(C(=O)c1ccc(Cl)c(S(=O)(=O)N2CCOCC2)c1)c1ccccc1C(=O)O | 0.3
COC(=O)c1cc(NC(=O)Nc2cc(OC)ccc2OC)cc(C(=O)OC)c1 | 1.3
COc1ccc(-c2nc(C)c(C(C)=O)n2O)cc1 | 1.5
CCOC(=O)N1CCN(C(=O)c2ccc3c(=O)n4c(nc3c2)CCCCC4)CC1 | i
CC1CCN(S(=O)(=O)c2ccc3c(c2)oc(=O)n3CC(=O)NCc2ccc3c(c2)OCO3)CC1 | 4.4
CCOC(=O)N1CCN(C(=O)CSCC(=O)Nc2nc(-c3ccc4c(c3)OCO4)cs2)CC1 | 3.9
CC(=O)N1CCN(c2ccc(NCc3ccccc3)cc2)CC1 | i
CC(O)CNc1nc2c(c(=O)n(C)c(=O)n2C)n1Cc1cccc(C(F)(F)F)c1 (stereo not drawn) | 0.7
COc1ccc(NC(=O)COn2nnc3ccc(Cl)cc32)cc1OC | 0.8
CCC(C)C(=O)Nc1cc(C(=O)OC)cc(C(=O)OC)c1 (stereo not drawn) | 0.6
Cc1c(NC2=NC3(CCCCC3)Cc3ccccc32)c(=O)n(-c2ccccc2)n1C | i
Clc1ccc(CSc2cc3c(nn2)-c2ccccc2CC3)cc1Cl | i
CCN(CC)CCN1C(=O)C(=O)/C(=C(/O)c2cnn(-c3ccccc3)c2C)C1c1cccs1 (stereo not drawn) | 0.5
CCOC(=O)C(C)Sc1nc(-c2ccco2)cc(C(F)(F)F)c1C#N (stereo not drawn) | 3.3
COc1ccc(NC(=O)CN(c2ccccc2)S(=O)(=O)N(C)C)cc1OC | 0.3
Cc1ccc(C(=O)CSc2nnc(-c3cccs3)n2C)o1 | 3.1
CCOC(=O)N1CCN(C(=O)C2CCN(S(=O)(=O)c3ccccc3)CC2)CC1 | i
Cc1cc(C)n(-c2nc(NC(C)C)nc(NC(C)C)n2)n1 | 1.6
CCn1c(SCC(=O)N2CCOCC2)nnc1-c1cccs1 | 0.6
Cc1ccc(C(=O)OCC(=O)NC(=O)c2cccn2C)cc1 | 1.4
O=C1N(Cc2ccccc2)CCCC12CCCN(Cc1ccccc1)C2=O | 0.3
Cc1cc(-c2ccccc2)n2ncc(C#N)c2n1 | 2.7
O=C(CSc1nc2ccccc2n1-c1ccccc1)NCC1CCCO1 (stereo not drawn) | 0.3

The results go on.
molecule | H5N1 antiviral
Cc1nnc(-c2ccccc2)nc1N1CCOCC1 | 0.7
Nc1nnc(-c2ccccc2)c(-c2ccccc2)n1 | i
CCOC(=O)c1c(NC(=O)c2nc3n(n2)C(C(F)F)CC(C)N3)sc2c1CCCC2 (stereo not drawn) | 2.0
Fc1ccc(-c2nnc(SCc3ncc(-c4ccccc4)o3)n2CC2CCCO2)cc1 (stereo not drawn) | 2.2
Cc1ccc(C(=O)OCC(=O)Nc2sc3c(c2C#N)CCCC3)cc1NC(=O)c1ccco1 | i
CCC(C)(C)n1nnnc1C(c1cccs1)N1CCN(Cc2ccccc2)CC1 (stereo not drawn) | 0.1
Cc1ccc(-n2cc(C(C)(C)C)[nH]c2=S)cc1 | 0.8
O=C1c2ccccc2-c2ccc(C(=O)N3CCOCC3)cc21 | 2.1
CCOC(=O)Cn1c(N2CCOCC2)nc2c1c(=O)[nH]c(=O)n2C | 0.6
C=CCn1c(SC(C)C(=O)NCc2ccc3c(c2)OCO3)nnc1C1CCCCC1 (stereo not drawn) | 5.2
CS(=O)(=O)N(CC(=O)NCCc1ccccc1)C1CCCCC1 | i
O=C(Oc1ccc(F)cc1C(=O)/C=C/c1cccs1)c1cccc([N+](=O)[O-])c1 | 2.4
Cc1ccc(S(=O)(=O)N2CCOCC2)cc1C(=O)Nc1ccc(-c2cn3ccsc3n2)cc1 | 1.3
Cc1cc(S(=O)(=O)N2CCN(c3ccccc3C)CC2)ccc1F | 0.7
CN1CCN(c2ncnc3c2[nH]c2ccc(F)cc23)CC1 | 0.6
CC(Oc1ccc(Cl)cc1)C(=O)NCCCn1ccnc1 (stereo not drawn) | 0.8
CC(C)OC(=O)C1C(=O)CC(C)(O)C(C(=O)OC(C)C)C1c1ccc(F)cc1 (stereo not drawn) | i
Cc1cccc(C)c1NC(=O)N1C(C(=O)O)CSC1C(=O)O (stereo not drawn) | 0.4
O=c1/c(=C/c2ccco2)sc2n1CN(c1cccc(Br)c1)CN=2 | 7.1
CN(C)/C=N/c1ncc(C(=O)c2ccc3ccccc3c2)s1 | 0.1
COc1ccc(OC)c2sc(NC(=O)CCSc3ccccc3)nc12 | i
CCOC(=O)C(NC(=O)c1ccc(OC)cc1)(N1CCOCC1)C(F)(F)F (stereo not drawn) | 0.2
CCCSc1nc(SCC(=O)NCc2ccccc2)c2c3c(sc2n1)COC(C)(C)C3 | 1.3
C=CCn1c(SC2CCOC2=O)nc2sc(CC)cc2c1=O (stereo not drawn) | 0.4
CC(C)NCCCOc1ccc(Cl)cc1Br | i
CCOC(=O)CSc1nc2c(c(=O)[nH]c(=O)n2C)n1CCc1ccccc1 | 0.6
N#CCCN1CCN(S(=O)(=O)c2ccc(S(=O)(=O)N3CCCC3)cc2)CC1 | 0.3
COCCn1cnc2c1c(=O)n(CC(=O)Nc1cc(C)on1)c(=O)n2Cc1ccccc1 | i
Cc1cc(C)n(CCSCC(=O)O)n1 | i
CCCn1nnc(NC(=O)c2ccco2)n1 | i

An excerpt of these results, field by field.
COc1ccc(-c2nc(C)c(C(C)=O)n2O)cc1
  H5N1 antiviral: 1.5
CCOC(=O)N1CCN(C(=O)c2ccc3c(=O)n4c(nc3c2)CCCCC4)CC1
  H5N1 antiviral: i
CC1CCN(S(=O)(=O)c2ccc3c(c2)oc(=O)n3CC(=O)NCc2ccc3c(c2)OCO3)CC1
  H5N1 antiviral: 4.4

Other entries follow.
molecule | H5N1 antiviral
O=S(=O)(Nc1ccccc1)c1ccc(Oc2ncc(C(F)(F)F)cc2Cl)cc1 | 0.2
CCC(NC(=O)Nc1ccc(O)cc1)(C(F)(F)F)C(F)(F)F | 0.1
CCN(CCCNC(=O)c1c(C)cc(=O)oc1C)c1cccc(C)c1 | 1.1
COCCOc1cc(N2C(=O)CSCC2=O)c(Cl)cc1Cl | i
O=P(O)(O)C12CC3CC(CC(C3)C1)C2 | i
CC1C/C(=N/NC(=O)c2cccc(F)c2)c2ccc(O)cc2C1 (stereo not drawn) | i
COc1ccccc1-n1c(=O)c2c3c(sc2n2c(SC(C)C)nnc12)CCC3 | i
COCCCNC(=O)Cn1ncc2c(=O)oc3ccccc3c21 | i
CC(C)(C)NC(=O)C1N(c2cccnc2)C(=O)C2C(C(=O)Nc3ccccc3)C3(C)C=CC21O3 (stereo not drawn) | 1.0
COc1cc(CN2CCN(C(=O)CC(C)C)CC2)cc(OC)c1O | i
Cc1ccc(C(=O)COC(=O)C2C3C=CC(C3)C2C(=O)OCC(=O)c2ccc(C)c(C)c2)cc1C (stereo not drawn) | 1.8
O=S(=O)(c1ccc(OCC(O)CN2CCN(c3ccccc3Cl)CC2)cc1)N1CCOCC1 (stereo not drawn) | i
CN(C)C(=O)c1cc2cc([N+](=O)[O-])ccc2s1 | i
CON/C=C(\C=Nc1ccc(Cl)cc1Cl)c1ncc(C(F)(F)F)cc1Cl | i
O=C1N=C2SCCN2/C1=C\c1c(Cl)cccc1Cl | i
O=C(CSc1nnc(Cn2c(=O)sc3ccccc32)n1-c1ccccc1)N1CCOCC1 | 0.5
CCOC(=O)CSc1nnnn1-c1cc(OC)c(Cl)cc1OC | 0.4
COc1cc(C2C(C(=O)c3ccc(C)o3)=C(O)C(=O)N2Cc2cccnc2)ccc1O (stereo not drawn) | 0.6
O=C(Nc1cccc(C(F)(F)F)c1)c1cc2c(=O)c3ccccc3oc2nc1C(F)(F)F | 3.4
CCOc1ccc(NC(=O)CSCc2cnn(-c3ccccc3)c2-n2cccc2)cc1 | i
COc1cc(/C=C2\SC(c3ccc(C)cc3)=NC2=O)ccc1O | 0.2
N#Cc1nc(COc2ccccc2F)oc1N1CCCCCC1 | 2.7
COc1ccc(C2=NCC(CSc3nnc(-c4ccc5c(c4)OCO5)o3)S2)cc1 (stereo not drawn) | 1.1
O=C(c1ccc(S(=O)(=O)N2CCOCC2)cc1)N1CCN(c2cccc(Cl)c2)CC1 | 1.7
CCCNC(=O)C1CNc2ccccc2O1 (stereo not drawn) | i
CC1CCCN(CCCNC(=O)c2coc3nc4ccccc4nc23)C1 (stereo not drawn) | 0.5
Cn1c(=O)c2c(nc(NCCc3ccccc3)n2CC(=O)NCCc2ccccc2)n(C)c1=O | i
O=C(COc1ccc(S(=O)(=O)N2CCCC2)cc1Cl)NC1CCCC1 | i
CN(Cc1ccccc1)S(=O)(=O)c1cccc2cccnc12 | 0.1
O=C(CNC(=O)c1ccc([N+](=O)[O-])cc1)N/N=C\c1ccc(OC(=O)c2ccccc2)cc1 | 2.4
CCOc1ccc(NC(=O)Nc2ccc3nccnc3c2)cc1 | i
CCn1c(=O)cc(SCC(=O)NCc2cccnc2)c2ccccc21 | 0.1
COc1ccc(N=C2SCC(=O)N2c2ccc(OC)cc2)cc1 | i
Cn1c(SCC(=O)N2CCOCC2)nc(O)cc1=O | i
Cc1ccc(-c2nnc(SCC(=O)NCC3CCCO3)n2C)cc1 (stereo not drawn) | 0.2
Cc1ccc(C)c(S(=O)(=O)NCC(=O)Nc2sc3c(c2C(N)=O)CCC(C)C3)c1 (stereo not drawn) | i
COCCn1nnnc1C(C(C)C)N(Cc1cccnc1)Cc1cc2cc(OC)ccc2[nH]c1=O (stereo not drawn) | 2.4
COc1cccc(-n2c(Cc3cc(=O)[nH]c(=O)[nH]3)nnc2SCc2cccnc2)c1 | 1.3
COc1ccc(NC(=O)Cn2nc(C(F)(F)F)c3c2CCCC3)c(OC)c1 | i

As entered above.
COc1cccc(-n2c(Cc3cc(=O)[nH]c(=O)[nH]3)nnc2SCc2cccnc2)c1 | H5N1 antiviral = 1.3
COCCn1nnnc1C(C(C)C)N(Cc1cccnc1)Cc1cc2cc(OC)ccc2[nH]c1=O (stereo not drawn) | H5N1 antiviral = 2.4
CCn1c(=O)cc(SCC(=O)NCc2cccnc2)c2ccccc21 | H5N1 antiviral = 0.1
